# TRPML1 ag: activates the human TRPML1 channel. TRPML1-expressing cells, Ca2+ dye fluorescence, FDSS; host cell line not named in the record; reference of the full effect not given here. actives 0.12% (n = 410,000). activation, % (no concentration beside the values). Q9GZU1. AID 624414; in the data active = activation above about 50%; inconclusive = about 30% to 50%; inactive = below about 30%; note: 0% is about no effect; the text of the record puts the active cut at 80%
#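 TRPML1-DL cells, Tet-induced overnight (~16 h, 37 degrees C), loaded 45-90 min at room temperature with Ca8 no-wash calcium dye plus quencher. FDSS fluorescence: 10 s baseline, compound pin-transfer, 110 s agonist read, then EC80 54-4 (4uM final) and 110 s antagonist read.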
# Menin-MLL FL inh: menin-MLL binding inhibition, fluorescein peptide | Fluorescence polarization, fluorescein-MLL peptide displacement from menin | FP activity change, % at 61.4 µM | 290,000 tested, under 10 active; inconclusive = falling polarisation curve, or a change in total fluorescence; inactive = total fluorescence flat and polarisation flat or rising; no compound was filed as active; the % refers to the polarisation; negative = inhibition;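 note: % of control where 0% means no effect; inhibitors lower the polarisation; unlabelled MLL peptide was the positive control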
# Sfp inh: Sfp phosphopantetheinyl transferase inhibition | Biochemical Sfp PPTase activity, qHTS | actives 3.5% (n = 310,000) | Potency, µM, for the others: max response, negative = inhibition, actives largely listed as inhibitors | AID 1490 | Q9F4F7; active = well fitted inhibition curve with a large enough effect; inconclusive = small, poorly fitted or top-dose-only effect, or another doubt; inactive = no such curve, though single readings can be large or run the other way;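 note: the enzyme is Sfp with the accession as filed and its product quenches rhodamine fluorescence; potency is the fitted concentration of half-maximal effect; 0% = enzyme reaction without inhibitor and -100% = no enzyme wells; top concentration of the series not given in the record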
#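 Compounds were incubated with enzyme (final 15 nM) for 15 min at room temperature before substrate addition started the reaction. Fluorescence at 525 nm excitation, 598 nm emission was recorded immediately and after 30 minutes.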
# ClpP mod: qHTS Assay for Activators of ClpP. ATP-dependent Clp protease proteolytic subunit (Bacillus subtilis (strain 168)), P80244. purified B. subtilis ClpP, FRET peptide cleavage, 20 min. Potency, µM (top dose mostly 57.5 µM), for inactives: at the top dose activity change, negative = active. actives 1.9% (n = 340,000); active = well fitted falling curve with a large enough effect; inconclusive = small, poorly fitted or top-dose-only effect; inactive = no such curve, though single readings can be large or run the other way; note: potency is the fitted concentration of half-maximal effect; the source files actives as falling curves though it sought activators and does not explain the sign; nearly all actives have a fitted effect of over 65% in size; many hits overshoot -100%
# Target sequence (P80244 whole entry, looked up): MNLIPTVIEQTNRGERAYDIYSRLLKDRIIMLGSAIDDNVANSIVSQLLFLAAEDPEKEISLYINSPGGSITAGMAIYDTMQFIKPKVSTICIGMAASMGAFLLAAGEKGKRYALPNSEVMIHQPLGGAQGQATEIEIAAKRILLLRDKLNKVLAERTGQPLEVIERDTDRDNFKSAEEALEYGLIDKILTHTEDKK
#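 Purified B. subtilis ClpP, 10 microg/mL final in Tris/HCl pH8 with KCl, BSA, glycerol and Tween-20, cleaved an Abz/nitrotyrosine-quenched decapeptide. Fluorescence (ex 320, em 430) was read at 0 and 20 min at room temperature. Delta was normalized to 5.8 microM ADEP and DMSO/no-enzyme controls.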
# TRPML1 blocker: inhibitors of human TRPML1 channel. activity change, negative = inhibition, % (concentration not given with the values). Q9GZU1. TRPML1-inducible cells, Ca2+ dye fluorescence, FDSS; stronger effect = lower value; inhibition of EC80 agonist-evoked calcium signal. AID 624415. actives 0.02% (n = 390,000); in the data active means activity change below about -50%; inconclusive means about -30% to -50%; inactive means above about -30%;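 note: stimulus is agonist 54-4 at its EC80 concentration; % is set by controls: 0 for no effect and ±100 for the full control effect; compound concentration not given in the record; the text of the record puts the active cut at -80%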
#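 TRPML1-DL cells, Tet-induced overnight (~16 h, 37 °C) at 1,500 cells/well, were loaded with Ca8 no-wash dye plus quencher for 45-90 min at room temperature. Compounds were pinned during FDSS kinetic reading; agonist 54-4 at EC80 (4 uM final) then added.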
# TRPV1 potentiator: enhances activation of the human vanilloid receptor TRPV1; Q8NER1; TRPV1-expressing cells, Fluo-8 calcium influx, capsaicin EC20 potentiation; host cell line not named in the record; control for the full effect not named in the record; potentiation, % at 8.33 µM; actives 0.02% (n = 320,000); AID 540277; active means potentiation above 80%; inconclusive means 30% to 80%; inactive means below 30%; note: 0% is about no effect
# Target sequence (Q8NER1 whole entry, looked up): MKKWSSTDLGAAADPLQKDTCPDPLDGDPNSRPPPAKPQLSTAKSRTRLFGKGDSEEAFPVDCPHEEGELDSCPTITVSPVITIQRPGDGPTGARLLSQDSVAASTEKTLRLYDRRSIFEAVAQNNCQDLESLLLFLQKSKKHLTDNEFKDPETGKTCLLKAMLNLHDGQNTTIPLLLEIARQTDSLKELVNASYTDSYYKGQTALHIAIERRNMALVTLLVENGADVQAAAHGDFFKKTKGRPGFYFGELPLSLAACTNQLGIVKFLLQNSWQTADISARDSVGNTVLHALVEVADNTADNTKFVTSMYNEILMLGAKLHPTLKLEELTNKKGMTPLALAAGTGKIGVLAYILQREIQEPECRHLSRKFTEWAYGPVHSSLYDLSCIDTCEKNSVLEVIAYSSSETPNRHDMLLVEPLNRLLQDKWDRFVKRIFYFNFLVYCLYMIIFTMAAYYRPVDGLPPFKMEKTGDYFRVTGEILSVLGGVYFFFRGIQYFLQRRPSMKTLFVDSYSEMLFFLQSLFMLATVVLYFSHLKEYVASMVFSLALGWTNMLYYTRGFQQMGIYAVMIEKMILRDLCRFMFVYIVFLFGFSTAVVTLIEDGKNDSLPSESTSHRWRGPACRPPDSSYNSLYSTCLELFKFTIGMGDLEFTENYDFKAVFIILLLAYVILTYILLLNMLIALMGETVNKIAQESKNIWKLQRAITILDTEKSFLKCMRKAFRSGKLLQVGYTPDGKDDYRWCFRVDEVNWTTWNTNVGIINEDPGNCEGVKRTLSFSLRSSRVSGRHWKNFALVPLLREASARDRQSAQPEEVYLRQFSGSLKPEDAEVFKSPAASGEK
#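 TRPV1-expressing cells were cultured overnight at 35.5C and loaded with Fluo-8 calcium dye for 40 to 90 min at room temperature. After a 10 s baseline, compound was added and calcium influx was read kinetically for 3 min (ex 480/em 520 nm).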
# PINK1 modulator: changes PINK1 expression; PINK1 immunofluorescence, high-content cytometry, 24 h; Potency, µM (series often up to 76.6 µM), for the others: at the highest dose activation (PINK1 increase), usual class: activators; actives 0.2% (n = 410,000); AID 624263; active = well fitted activation curve with a large enough effect; inconclusive = small, poorly fitted or top-dose-only effect; inactive = flat fitted curve, though single readings scatter; cell line not stated here;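 note: potency is the fitted concentration of half-maximal effect; % of control where 0% means no effect; nearly all actives have a fitted effect of over 65% in size; a mitochondrial uncoupler was the plate control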
#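 Fluorescence from anti-PINK1 antibody, together with nuclear and cell stains, was scanned on a laser-scanning cytometer. Before staining, stable-line cells were incubated 24 hours with compounds at 5 concentrations; primary antibody 12 h at 10 degrees C.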
# Starred values were filed as active, the others as inactive; ? = inconclusive; · = no result given; & = joins results of further samples; [ ] = remark or other dose.
# Second line of a record – Menin-MLL FL inh	Sfp inh	ClpP mod	TRPV1 potentiator	PINK1 modulator	TRPML1 blocker	TRPML1 ag
> Cc1ccccc1NC(=O)COC(=O)[C@@H]1CCCN1C(=O)c1cccs1
    ·	·	·	·	2.2%	-17	-0.2
> S=c1[nH]nc(-c2ccccn2)n1/N=C/c1ccc(Cl)cc1
    2.9	11%	-24%	15	0.2%	6	-0.4
> C/C(CCC(C)C)=N\NC(=S)Nc1cc(S(=O)(=O)N2CCOCC2)ccc1N1CCOCC1
    -6.3	12%	·	-6	0.7%	-7	1.2
> O=C(NCCCO)c1ccc2nc(-c3ccco3)c(-c3ccco3)nc2c1
    -17	10µM*	-13%	8	1.1%&2.7%	-2	-0.2&-0.3
> COc1ccccc1CCNC(=O)C(=O)NCC1OCCCN1S(=O)(=O)c1ccc(F)cc1C (centres undefined)
    ·	14%	24%	3	-0.3%	6	0.3
> Cc1ccc(C)c(OCCOCCN2CC(C)OC(C)C2)c1C (centres undefined)
    -1.3	?	-0.2%	-3	-2.3%	8	0.7
> Cc1cc(=O)c(C(=O)Nc2cccc(C(=O)NC3CC3)c2)nn1-c1ccccc1
    ·	·	0.7%	·	1.3%	15	-0.1
> COc1ccc(C(=O)N2CCOCC2)cc1Br
    4.7	11%	-5.0%	-4	1.2%	7	-0.9
> CCN(CC)S(=O)(=O)c1ccc2c(c1)c(=O)c(C(=O)NCCN(C)CCc1ccccc1)cn2C
    0.2	6%	0.0%	-4	-4.5%[38.3 µM]	8	-0.4
> O=C(Nc1ccc(Cl)cn1)c1cccc(S(=O)(=O)N2CCCCCC2)c1
    ·	·	-1.7%	·	-0.6%	30	1.7
> COc1ccc(NS(=O)(=O)c2cc(C(=O)N3CCN(C/C=C/c4ccccc4)CC3)ccc2C)cc1
    ·	·	-1.7%	6	-2.0%	-3	-0.2
> CO/N=C/C(C#N)=C/c1ccc(OC)cc1
    2.4	20%	·	2	-3.2%	-5	1.5
> O=C(Cn1c(S(=O)(=O)Cc2ccccc2)nc2ccccc21)N1CCCCC1
    -3.8	15%	0.9%	10	2.1%	4	-0.5
> CCCSc1nnc2n(-c3ccccc3OC)c(=O)c3c4c(sc3n12)CCC4
    1.6	-12%	-4.0%	-6	-1.9%	17	-0.5
> CCOC1=C2[C@H](c3ccccc3)N(S(=O)(=O)c3ccc(C)cc3)C[C@H]2n2c(=O)n(-c3ccccc3)c(=O)n2C1
    ·	·	2.0%	·	1.9%	29	-0.1
> CCOC(=O)c1scc(-c2ccc(C)cc2)c1S(=O)(=O)N1CCN(c2ccccc2)CC1
    ·	·	1.4%	·	-0.1%	63	0.7
> Cc1cc(C)n(CC(C)NC(=O)c2cc(COc3ccc(F)c(F)c3)on2)n1 (centres undefined)
    -1.3	14%	-1.6%	7	-0.3%	22	-0.1
> CC(C)C(NCc1c(Cl)cccc1Cl)C(=O)O (centres undefined)
    0.4	15%	1.7%	2	27%[38.3 µM]	-12	0.8
> CC(C)CNC(=O)C(=O)N/N=C/c1cccs1
    2.9	10%	0.1%	-2	-5.2%[38.3 µM]	10	-0.6
> Cc1ccccc1C(=O)c1c[nH]c(C(=O)N=CN(C)C)c1
    2.9	-3%	·	7	1.0%	1	-0.6
> OCc1ccccc1-c1cccc2nccn12
    ·	·	4.2%	·	2.3%	-25	0.0
> O=C(NCC1COc2ccccc2O1)C1CCN(S(=O)(=O)c2cccc3nsnc23)CC1 (centres undefined)
    1.0	13%	-0.2%	·	-0.3%	17	-1.0
> COc1ccc(C(=O)NCCn2cc(SCC(=O)NCC3CCCO3)c3ccccc32)cc1 (centres undefined)
    -0.9	5%	-2.5%	-2	-1.2%	10	1.7
> O=C(c1ccccc1)C1CCN(C(=O)c2ccco2)CC1
    ·	-1%	-1.7%	-5	-0.5%	4	0.0
> CC(C)Oc1ccc(C(=O)OCC(=O)NCCNC(=O)COC(=O)c2ccc(OC(C)C)cc2)cc1
    ·	12%	-0.1%	-2	1.5%	-10	1.7
> CCCc1nnc(NC(=O)c2nc(S(=O)(=O)Cc3cccc(C)c3)ncc2Cl)s1
    ·	-25%	0.7%	7	-0.4%	4	-0.7
> COc1ccc(C(=S)N2CCOCC2)cc1OC(=O)c1ccc(C)cc1
    ·	-1%	·	3	4.3%	-17	-0.5
> COc1ccc(C2C(C(N)=O)=C(C)Nc3nc(-c4ccccc4Cl)nn32)cc1 (centres undefined)
    ·	·	4.2%	·	0.7%	11	-0.5
> CN1CCc2c(sc(/N=C/c3cc(Cl)ccc3O)c2C#N)C1
    19	-10%	·	3	0.6%	-6	0.2
> COCCNC(=O)CCCn1c(=O)c2cc(OC)c(OC)cc2n(CC(=O)c2ccc(Cl)cc2)c1=O
    0.4	19%	·	3	·	·	·

# Given as tab-separated lines: entries from further up.
SMILES	Menin-MLL FL inh	Sfp inh	ClpP mod	TRPV1 potentiator	PINK1 modulator	TRPML1 blocker	TRPML1 ag
Cc1ccccc1C(=O)c1c[nH]c(C(=O)N=CN(C)C)c1	2.9	-3%	·	7	1.0%	1	-0.6
OCc1ccccc1-c1cccc2nccn12	·	·	4.2%	·	2.3%	-25	0.0
O=C(NCC1COc2ccccc2O1)C1CCN(S(=O)(=O)c2cccc3nsnc23)CC1 (centres undefined)	1.0	13%	-0.2%	·	-0.3%	17	-1.0
COc1ccc(C(=O)NCCn2cc(SCC(=O)NCC3CCCO3)c3ccccc32)cc1 (centres undefined)	-0.9	5%	-2.5%	-2	-1.2%	10	1.7
O=C(c1ccccc1)C1CCN(C(=O)c2ccco2)CC1	·	-1%	-1.7%	-5	-0.5%	4	0.0
CC(C)Oc1ccc(C(=O)OCC(=O)NCCNC(=O)COC(=O)c2ccc(OC(C)C)cc2)cc1	·	12%	-0.1%	-2	1.5%	-10	1.7
CCCc1nnc(NC(=O)c2nc(S(=O)(=O)Cc3cccc(C)c3)ncc2Cl)s1	·	-25%	0.7%	7	-0.4%	4	-0.7
COc1ccc(C(=S)N2CCOCC2)cc1OC(=O)c1ccc(C)cc1	·	-1%	·	3	4.3%	-17	-0.5
COc1ccc(C2C(C(N)=O)=C(C)Nc3nc(-c4ccccc4Cl)nn32)cc1 (centres undefined)	·	·	4.2%	·	0.7%	11	-0.5
CN1CCc2c(sc(/N=C/c3cc(Cl)ccc3O)c2C#N)C1	19	-10%	·	3	0.6%	-6	0.2
COCCNC(=O)CCCn1c(=O)c2cc(OC)c(OC)cc2n(CC(=O)c2ccc(Cl)cc2)c1=O	0.4	19%	·	3	·	·	·

# The list continues.
# Second line of a record – Menin-MLL FL inh	Sfp inh	ClpP mod	TRPV1 potentiator	PINK1 modulator	TRPML1 blocker	TRPML1 ag
> CCc1ccccc1S(=O)(=O)Cc1ccc(C(=O)NCCc2ccccc2)o1
    2.0	23%	-0.7%	-2	0.9%	2	-1.3
> O=C(NC1CCCC1)C1C2C=CC(C2)C1C(=O)N1CCOCC1 (centres undefined)
    1.4	19%	-1.1%	-8	0.3%	28	0.0
> COc1cc(Cl)c(C)cc1NC(=O)c1cc(CN2CCOCC2)on1
    ·	·	0.4%	·	3.7%	10	-0.1
> O=C(Cn1c(-c2cccs2)cc2ccccc21)NCc1ccccc1Br
    ·	·	32µM*	·	2.1%	4	-0.4
> O=C(CNC(=O)c1ccccc1F)NCc1ccncc1
    ·	·	2.3%	·	1.1%	-5	0.5
> Nc1ccc(Sc2nnnn2-c2ccccc2)c(Cl)c1
    2.7	11%	0.3%	-2	?	29	2.0
> O=C(CCn1c(=O)oc2cc(Cl)ccc21)Nc1ccc(O)cc1
    0.8	20%	·	-4	1.2%	23	2.8
> CN(C)c1ccc(/C=C/c2c(F)cnc3ccccc23)cc1
    ·	·	1.9%	·	7.5%	·	3.5
> CCOC(=O)[C@]12CCC=C1N(CCC1=CCCCC1)C(=O)[C@H](CC(=O)NCc1cccc(C(F)(F)F)c1)C2
    ·	·	-2.0%	·	3.4%	·	-0.3
> CCc1cc(=O)oc2c3c(cc(OCC(=O)NCCCCCC(=O)O)c12)OC(C)(C)CC3
    -3.4	12%	3.4%	4	-1.8%	7	3.9
> CC1CCN(C(=O)COC(=O)c2ccc(=O)n(Cc3ccccc3)n2)CC1
    ·	·	-9.4%	5	1.2%	-3	0.1
> O=C1NC(=S)SC1=Cc1ccc2c(c1)OCO2
    ·	·	·	·	-0.7%	1	-1.0
> COc1cc(-c2cnc3c(NC=O)cc(-c4cccc(C(F)(F)F)c4)cn23)cc(OC)c1OC
    ·	·	-9.5%	·	1.6%	·	-0.7
> COCc1nnc(NC(=O)CCCCCN2C(=O)c3ccccc3C2=O)s1
    5.5	-6%	0.9%	?	1.2%[38.3 µM]	3	1.4
> CC(C)C(=O)Nc1nnc(Cc2c[nH]c3ccccc23)s1
    -0.5	8%	9.0%	4	4.3%	-3	1.4
> Cc1ccc(-c2nc3c4ccccc4n(Cc4cccc(Cl)c4)c(=O)n3n2)cc1
    ·	·	-1.5%	·	0.3%	-25	1.5
> CCCC(=O)OCC(=O)Nc1ccc2c(c1)OCO2
    -1.7	9%	?	-17	-1.7%	41	0.4
> Cc1cc(C(=O)NCC(=O)OC(C(=O)Nc2cc(C(F)(F)F)ccc2Cl)c2ccccc2)ccc1[N+](=O)[O-] (centres undefined)
    5.0	13%	-1.0%	-11	0.7%	-14	0.3
> O=C(O)C1C2CCC(O2)C1C(=O)Nc1cccc(F)c1 (centres undefined)
    -0.8	-8%	·	3	·	·	·
> CCN(CC)c1ccc(/C=N/Nc2nc3ccccc3[nH]2)cc1
    4.9	-8%	?	2	25%	-16	2.5
> COc1ccccc1CNc1ccc(-c2nc(-c3ccccc3C)no2)cc1[N+](=O)[O-]
    ·	·	1.2%	·	-1.0%	-6	-0.4
> COc1cc(Cl)cc(C#N)c1OCC(=O)O
    -0.2	13%	-1.6%	3	-0.4%[38.3 µM]	7	0.3
> CCOC(=O)Cc1csc(NC(=O)c2ccc(Br)s2)n1
    5.7	1%	·	-8	·	·	·

# Source: PubChem (National Center for Advancing Translational Sciences (NCATS))
